Screens (PubChem)
ALR H2O2 inh = blocks human ALR sulfhydryl oxidase activity; purified ALR, DTT oxidation, H2O2 HRP-luminol luminescence; inhibition, % (no concentration beside the values); actives 3.8% (n = 290,000); AID 485317;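 active = mean and each replicate at 75% or more; inconclusive = only one of the two met; inactive = neither met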;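 note: stock transfer was 7.5 nL into about 7.5 µL; 0% = neutral wells and 100% = wells with inactivated enzyme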
Target sequence (P55789 whole entry, looked up): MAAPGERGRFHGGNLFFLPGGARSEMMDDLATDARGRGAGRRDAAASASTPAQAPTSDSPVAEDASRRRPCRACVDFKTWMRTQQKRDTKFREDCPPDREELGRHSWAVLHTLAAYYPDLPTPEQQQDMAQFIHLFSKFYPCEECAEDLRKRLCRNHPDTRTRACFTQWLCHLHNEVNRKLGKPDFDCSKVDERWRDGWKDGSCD
Calb FLC = affects C. albicans growth with fluconazole. C. albicans CaCi-2 (fluconazole-resistant clinical isolate) + fluconazole, Alamar Blue growth, 48 h. growth inhibition, % (concentration not given with the values). AID 1979. actives 0.57% (n = 300,000);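 active = most replicates above 75%; inconclusive = exactly half above 75%; inactive = most below 75%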;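 note: all wells also contain fluconazole at 8 µg/ml as a sub-toxic cotreatment; 0% = median of DMSO wells and 100% = median of geldanamycin control wells; wells of about 8 µL received 7.5 nL stock; the first replicate is given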
Beta apoptosis = beta cell apoptosis inhibition; actives 0.8% (n = 300,000); INS-1E cytokine-induced death, ATP luminescence, 48 h; percent of positive-control rescue, neutral wells zero; protection from apoptosis, % (test concentration not listed); AID 435005;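 active = all replicates at 75% or more, or half of them and the mean; inconclusive = half reach 75% but not the mean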;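 note: 0% = cytokine-treated negative control wells and 100% = positive control rescue; higher means more ATP so stronger rescue from cytokine killing; wells of about 40 µL received 100 nL stock; the first replicate is given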
RanGTP-Imp inh = disruptors of Ran-importin-beta complex formation – biochemical, FRET, CFP-Ran, YFP-importin-beta, homogeneous, primary screen. actives 1.1% (n = 300,000). cell-free CFP-Ran/YFP-importin-beta FRET ratio. inhibition, % (test concentration not listed). AID 2216;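 active = most replicates above 15%; inconclusive = exactly half above 15%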;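 note: 0% = DMSO wells and 100% = Ran loaded with GDP instead of GTP; wells of about 40 µL received 100 nL stock; the first replicate is given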
MLL AF4-AF9 inh = MLL-AF4/AF9 protein interaction inhibition | AlphaScreen, biotin-AF4 peptide binding to FLAG-AF9 | inhibition, % at 10 µM | actives 0.47% (n = 350,000) | AID 651704;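 active = every replicate reaching a set inhibition limit, whatever the replicate mean, cut at about 25% in these data; inconclusive = mean inhibition reaches that limit but some replicates miss it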;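 note: 0% = plate neutral control median and 100% = total signal loss; the record names both 10 and 1 µM as test concentration; the first replicate is given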
Target sequence (P42568 whole entry, looked up): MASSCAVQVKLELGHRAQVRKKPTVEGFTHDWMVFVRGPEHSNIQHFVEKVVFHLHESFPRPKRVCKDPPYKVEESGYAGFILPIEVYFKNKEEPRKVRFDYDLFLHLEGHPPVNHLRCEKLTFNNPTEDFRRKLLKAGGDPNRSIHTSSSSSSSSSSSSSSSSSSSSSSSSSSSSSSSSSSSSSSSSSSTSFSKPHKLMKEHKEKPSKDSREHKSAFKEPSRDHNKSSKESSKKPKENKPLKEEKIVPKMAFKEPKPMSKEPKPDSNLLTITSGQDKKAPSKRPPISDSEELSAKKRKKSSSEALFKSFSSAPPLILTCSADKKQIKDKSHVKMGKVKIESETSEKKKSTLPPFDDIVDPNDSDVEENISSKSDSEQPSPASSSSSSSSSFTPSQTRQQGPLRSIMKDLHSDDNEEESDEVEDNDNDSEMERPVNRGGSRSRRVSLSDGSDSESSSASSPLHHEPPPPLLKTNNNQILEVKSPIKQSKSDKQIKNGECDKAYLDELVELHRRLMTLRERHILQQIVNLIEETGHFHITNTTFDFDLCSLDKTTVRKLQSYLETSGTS
rRNA inh HTS = inhibitors of bacterial rRNA selective over humanized ribosomes | E. coli WT GFP vs humanized-ribosome RFP mutants, fluorescence, 24 h; active compounds read low; DMSO median 0, no signal -100 | GFP signal change (wild-type ribosome), % (test concentration not listed) | actives 1.6% (n = 350,000) | AID 720706;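 active = significant combined selectivity score with lowered wild-type GFP, culture density cut under 30%, mutant RFP and density less affected; inactive = any of these conditions unmet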; note: one replicate is shown; some compounds called inactive have numbers as strong as hits
T cruzi repl = blocks replication of Trypanosoma cruzi. T. cruzi beta-gal in NIH3T3, luminescence, 90 h. inhibition, % (concentration not given with the values). actives 1.4% (n = 300,000). AID 1885;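 active = mean inhibition across valid replicates above about 55%, limit read from the data; inconclusive = mean below that limit but half or more replicates reach it; inactive = mean below it, under half of replicates reach it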;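 note: signal also drops with host cell toxicity which is not excluded here; 0% = plate median of DMSO wells and 100% = zero luminescence signal; higher percent means less beta-gal luminescence so fewer parasites; stock transfer was 50 nL into about 50 µL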
FGF22 binding = binders of recombinant human FGF22 by thermal shift. SYPRO orange fluorescence; percent of sucrose octasulfate shift, DMSO zero. calls only at 9.99 µM. actives 1.5% (n = 340,000). AID 651658;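 active = melting point raised past a set limit in the mean and every replicate; inconclusive = no clear call; three in four hits are not shown here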
Target sequence (Q9HCT0 whole entry, looked up): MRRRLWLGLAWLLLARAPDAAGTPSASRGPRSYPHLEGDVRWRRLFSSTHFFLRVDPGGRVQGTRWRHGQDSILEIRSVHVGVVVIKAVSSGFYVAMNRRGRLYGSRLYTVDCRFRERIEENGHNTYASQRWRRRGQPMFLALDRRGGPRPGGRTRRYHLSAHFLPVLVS
rRNA inh HTS OD600 = second read-out of rRNA inh HTS, no call of its own (marks repeat the call); OD600 change, %; measured here: OD600 growth;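 optical density of the mix in the first replicate; 0 = DMSO median and -100 = no signal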
rRNA inh HTS RFP = also measured in rRNA inh HTS; calls as there; RFP signal change, %; measured here: RFP humanized mutant strains;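 first replicate; 0 = DMSO median and -100 = no signal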
Active calls of the source: *; i = inactive; ? = inconclusive; . = no result given. These rows are one share of the data, so the mix of outcomes need not match the whole.

Structure	Calb FLC	rRNA inh HTS RFP	rRNA inh HTS OD600	MLL AF4-AF9 inh	Beta apoptosis	rRNA inh HTS	T cruzi repl	RanGTP-Imp inh	FGF22 binding	ALR H2O2 inh
O=C(Nc1cc(Cl)ccc1Cl)C1CCCO1 (stereo not given)	-9	-4.6	14	2.5	0	0	-10	5.0	i	.
Cc1ccc(-n2c(=O)[nH]cc(C(=O)Nc3ccc4c(c3)OCCO4)c2=O)cc1C	-13	.	.	.	0	.	-21	-1.2	.	8
O=C(c1cccnc1)N1CCN(Cc2ccc3ccccc3c2)CC1	2	0.4	5	5.5	-4	3	-7	1.0	i	-23
CCOCCc1nnc(NC(=O)C(C)Oc2ccccc2)s1 (stereo not given)	-5	1.8	-5	0.6	-1	5	-3	-1.2	i	-4
CCOc1cc(CNCCN(C)C)c(Cl)cc1OCC(=O)NCCc1ccccc1	2	.	.	.	-4	.	20	?	.	-3
Cc1nnc(NCc2ccco2)s1	-5	.	.	.	-5	.	-7	6.0	.	4
Nc1ccccc1SCC(=O)Nc1ccc2c(c1)OCO2	3	3.7	3	0.2	-1	9	2	-3.3	i	-3
O=C(CN1CCN(Cc2ccc(Cl)cc2)C1=O)NCCCN1CCN(c2ccc(F)cc2)CC1	46	.	.	.	40	.	46	0.9	.	?
COc1cc(-c2nc3ccccc3nc2-c2ccc(O)c(OC)c2)ccc1O	4	-2.6	-42	7.2	.	-22	9	3.1	i	99*
CCCC(c1nnnn1CCOC)N1CCN(c2nc3ccccc3s2)CC1 (stereo not given)	27	-2.9	-20	-1.2	-1	-15	2	-2.7	i	7
COC(=O)c1nn(Cc2ccccc2)c(=O)c2ccccc12	-1	.	.	.	-6	.	-29	-0.3	.	-1
CC(C)CNC(=O)NC(=O)COC(=O)c1cc(F)cc(F)c1	-7	.	.	-2.0	.	.	-17	?	i	-1
CC1CN(c2oc(COc3ccc(Cl)cc3Cl)nc2C#N)CC(C)O1 (stereo not given)	-17	.	.	.	-9	.	21	1.4	.	2
CCOC(=O)C(Cc1ccc(NC(=O)/C(=C\c2ccccc2)NC(=O)c2ccccc2)cc1)N1C(=O)c2ccccc2C1=O (stereo not given)	12	.	.	.	-6	.	-16	1.9	.	0
O=C(NC(=S)NC1CCC(O)CC1)c1ccco1 (stereo not given)	.	.	.	0.4	-3	.	.	.	i	-5

More entries.
Structure	Calb FLC	rRNA inh HTS RFP	rRNA inh HTS OD600	MLL AF4-AF9 inh	Beta apoptosis	rRNA inh HTS	T cruzi repl	RanGTP-Imp inh	FGF22 binding	ALR H2O2 inh
COc1cc(C(=O)N(Cc2ccccc2)c2cccc(C)c2)ccc1OC(F)F	23	1.1	-13	-2.2	3	-5	23	-3.5	i	4
O=C(COc1ccc(C(=O)NCCN2CCOCC2)cc1)Nc1cccc(C(F)(F)F)c1	6	-2.1	8	-8.4	-3	2	-13	2.2	i	-6
CC(C)N(Cc1ccccc1)C(=O)COC(=O)c1ccc2c(c1)OCCO2	.	.	.	.	-10	.	-8	0.8	.	0
Cc1ccccc1S(=O)(=O)Cc1ccc(C(=O)NCCCN2CCC(C)CC2)o1	-9	-1.4	12	2.7	7	4	13	-1.7	i	-9
O=C(NCCCNC(=O)c1c(Cl)cccc1Cl)c1c(Cl)cccc1Cl	-4	-2.6	5	1.0	.	2	3	0.8	i	-1
Brc1ccc(-c2csc3ncnc(-n4nnc5ccccc54)c23)cc1	-2	.	.	.	-4	.	-17	5.2	.	0
CCOC(=O)c1cccc(NC(=O)c2c(N)n(C)c(=O)[nH]c2=O)c1	6	.	.	.	6	.	-19	3.0	.	-1
CC(C)(C)/C(O)=C(/C#N)c1nc2ccccc2[nH]1	-5	.	.	.	14	.	-1	0.7	.	1
Cc1ccc(S(=O)(=O)N2CCN(C(=O)CC(C)C)CC2)cc1	-5	-0.1	10	-0.7	-1	14	-4	1.0	i	-2
COc1cc(C(=S)N2CCOCC2)ccc1OS(=O)(=O)c1ccc(C)cc1	-1	-0.4	-18	1.2	-5	-13	2	1.6	i	3
CCNC(=O)c1ccc(NC(=O)CC2SC(N3CCCC3)=NC2=O)cc1 (stereo not given)	-4	-1.6	17	-0.5	-5	9	-12	5.5	.	12
Cc1ccc(S(=O)(=O)NCC(=O)OC2CCOC2=O)cc1 (stereo not given)	6	.	.	.	-5	.	-5	-0.2	.	-6
NC(=O)Nc1cccc2ccccc12	25	.	.	.	-5	.	-18	4.7	.	-34
Cc1cc(C)n2cc(CSc3nc4cc(Cl)ccc4o3)nc2n1	-6	.	.	.	-1	.	5	-2.0	.	-9
O=S(=O)(/N=C(/Nc1cccnc1)c1ccccc1)c1ccc(F)cc1F	.	-0.2	1	-0.6	-2	4	.	.	i	15

Continued:
Structure	Calb FLC	rRNA inh HTS RFP	rRNA inh HTS OD600	MLL AF4-AF9 inh	Beta apoptosis	rRNA inh HTS	T cruzi repl	RanGTP-Imp inh	FGF22 binding	ALR H2O2 inh
CCOc1ccc(-c2nc(-c3ccccc3)no2)cc1OCC	0	1.4	11	-4.0	1	11	21	-4.6	i	-1
Cn1c(SCC(=O)N2CCCCC2)nc2c([nH]c3ccccc32)c1=O	-13	-2.4	4	-1.4	-2	1	-4	1.8	i	0
Cc1cccc(N/N=C/c2ccncc2)c1	-1	-2.1	-1	20	-2	8	-10	0.6	i	99*
CC(C)(C)N1C(=O)c2ccc(C(=O)Nc3cc(C(=O)O)cc(C(=O)O)c3)cc2C1=O	-8	6.0	0	-0.9	-11	7	-6	1.5	i	-18
CC(C)NC(=O)[C@H]1N2C(=O)c3ccccc3C2SC1(C)C (stereo not given in full)	-5	1.0	18	-10	-8	20	-3	-3.4	i	-10
COc1ccccc1CNC(=O)COC(=O)c1ccccc1-c1ccccc1	5	-4.9	-54	-0.8	.	-38	4	3.8	.	.
CCN(CC(=O)Nc1cc(Cl)ccc1C)C(=O)CC1CCCC1	.	-0.2	-6	1.5	-2	1	.	.	i	-4
COc1ccc(CNC(=O)COC(=O)/C=C/c2cccc(Cl)c2)cc1	.	0.7	13	-6.5	0	10	.	.	i	-2
c1ccc2[nH]c(NCCCN3CCOCC3)nc2c1	-6	.	.	.	-6	.	-19	-0.2	.	11
CCc1ccc(CN(C)C(=O)C2CCC(=O)N(Cc3cccc(OC)c3)C2)nc1 (stereo not given)	-16	-0.3	6	0.0	0	7	-5	1.5	i	-3
COc1ccccc1OCc1ccc(C(=O)NCC2CCCO2)o1 (stereo not given)	-3	.	.	.	-8	.	-2	-2.6	.	-6
CCn1c2ccccc2c2cc(NC(=O)COc3ccc(OC)cc3)ccc21	3	.	.	.	4	.	11	-0.2	.	-6
FC(F)Oc1ccc(-n2cc(-c3ccc(Cl)cc3)[n+]3c2CCCCC3)cc1	-34	-12*	-17*	6.0	14	-47*	25	-5.6	i	-4
CCCCN1CC[C@H]2C=CC[C@@H](C(=O)N3CCN(c4ccccc4)CC3)[C@H]2C1=O	-1	3.9	-8	-4.7	1	-12	17	-2.8	i	.
Cc1n[nH]c(=O)nc1N1CCN(c2ccccc2)CC1	30	.	.	.	-1	.	-2	-3.7	.	?

(more compounds)
Structure	Calb FLC	rRNA inh HTS RFP	rRNA inh HTS OD600	MLL AF4-AF9 inh	Beta apoptosis	rRNA inh HTS	T cruzi repl	RanGTP-Imp inh	FGF22 binding	ALR H2O2 inh
Cc1nc2c(Br)cc(Br)cc2cc1O	0	.	.	.	0	.	2	-0.9	.	.
Oc1ccc2ccccc2c1C=Nc1cc(C(F)(F)F)ccc1N1CCCC1	-11	.	.	.	-4	.	-1	2.8	.	-5
Cc1ccc(-c2[nH]ncc2/C=N/n2c(C)nc3ccccc3c2=O)cc1	-17	4.5	8	-2.6	-1	12	11	-0.3	i	-4
Cc1ccc(NC(=O)C(C)SCc2nc3sc(C)c(C)c3c(=O)[nH]2)nc1 (stereo not given)	1	0.7	22	-16	-8	12	-2	-5.7	i	99*
CCOc1ccc(NC(=O)c2ccc(NS(=O)(=O)c3cccs3)cc2)cc1	-2	1.6	-15	0.9	3	-12	3	-2.4	i	-3
Nn1c(C2COc3ccccc3O2)n[nH]c1=S (stereo not given)	9	-5.2	9	-32	-3	7	-16	-3.7	i	19
N#Cc1ccc(NC(=O)Nc2ccc(Oc3ccc(NC(=O)Nc4ccc(C#N)cc4)cc3)cc2)cc1	1	1.1*	-21*	-11	21	-28*	61*	?	i	.
Cc1ccc(-c2csc3ncn(CC(=O)NCC(c4ccco4)N4CCCC4)c(=O)c23)cc1 (stereo not given)	.	0.4	2	3.2	-1	3	.	.	i	-1
CN(CCc1ccccn1)C(=O)c1cc(COc2ccc(F)cc2F)on1	6	-1.7	-4	-0.5	-5	2	-16	-0.6	i	2
CC(=O)N1c2ccc(S(=O)(=O)NCC3CCC(C(=O)NC4CCC(C)CC4)CC3)cc2CC1C (stereo not given)	33	1.7	1	-1.8	11	-8	2	-0.1	i	-2
O=C(Nc1ccccc1-c1ccccc1NC(=O)c1ccco1)c1ccco1	-11	.	.	.	-6	.	1	?	.	-9
CCC(C(=O)NC1CCCC1)N(C(=O)Cn1nnc(-c2ccc(C)o2)n1)c1ccc(F)cc1 (stereo not given)	2	-0.8	8	0.1	.	7	12	4.7	i	.
Cc1cnc(C(=O)OCC(=O)Nc2cc(S(=O)(=O)N3CCCCC3)ccc2Cl)cn1	-2	0.3	8	0.7	-10	9	7	?	i	0
CCCNC(=O)CCCN1C(=O)c2ccccc2Sc2ncccc21	5	1.4	5	-0.7	-8	11	-7	0.9	i	-15
CCOC(=O)c1sc(NC(=O)c2cccc(S(=O)(=O)N3CCN(C)CC3)c2)cc1C	0	.	.	.	-6	.	1	4.7	.	-6
O=C(O)c1cc([N+](=O)[O-])c(NCCC2=CCCCC2)c([N+](=O)[O-])c1	-5	-1.3	-15	3.4	4	-11	38	0.9	.	-4
CCOC(=O)c1cnn(-c2ccc([N+](=O)[O-])cc2)c1N	-6	.	.	2.4	4	.	-11	4.5	i	-5
CCCOc1ccc(/C=N/Nc2cccc([N+](=O)[O-])c2)c(O)c1	-36	.	.	.	31	.	42	1.5	.	-1
